Screens: PubChem, ICCB-Longwood Screening Facility, Harvard Medical School
MgrA-DNA mod: S. aureus MgrA activity modulators, primary screen, biochemical, S. aureus Newman, fluorescence polarization; AID 602314, 2012; inhibition, %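 (about 10 µg/mL by stock and volumes)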; 84,000 tested, 0.13% active; MgrA-DNA binding;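 active = above 50% in either of two replicates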;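 note: 0% = protein plus DNA without compound and 100% = DNA alone without protein; higher means less MgrA bound to DNA so lower polarization; one replicate is shown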
S aureus helic: inhibitors of S. aureus replicative helicase, primary screen, biochemical, fluorescence unwinding readout. AID 485395, 2010. purified S. aureus helicase, fluorescence unwinding assay; about half of the hits fall short of the stated cut. 120,000 tested, 0.05% active. inhibition, %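 (tested at about 80 µM)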. replicative DNA helicase (DnaC/DnaB), Staphylococcus aureus;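 active = both duplicates at 50% or more, or one of them with a favoured structure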;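 note: 0% = mean of negative control wells and 100% = mean of positive control wells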
* = called active by the depositor; & = joins results of further samples. These rows are one share of the data, so the mix of outcomes need not match the whole.

For Cc1cc2c(c(SCC(=O)N(C)c3ccccc3)n1)C(=O)OC2 the results were MgrA-DNA mod -2.9 and S aureus helic -7.
For CCOC(=O)c1ccc(NC(=O)CCc2c(C)nc3cc(-c4ccccc4OC)nn3c2C)cc1 the results were S aureus helic 1.
Screening COC(=O)c1csc([N+](=O)[O-])c1 returned MgrA-DNA mod 3.0.
`Cc1cc(C(=O)CSc2n[nH]c(=O)n2C2CC2)c(C)n1-c1ccccc1` gave S aureus helic -4.
Screening CC(C)C(=O)OCC(=O)NN1C(=O)NC(C)(c2ccccc2)C1=O (stereo unspecified) returned S aureus helic -21.
For O=[N+]([O-])c1cc(Br)c(Oc2cncc(Cl)c2)cc1Oc1cncc(Cl)c1 the results were MgrA-DNA mod 1.1.
`COc1ccc(OC)c(N(CC(=O)N2CCN(c3ccc(F)cc3)CC2)S(=O)(=O)c2ccc(OC)c(OC)c2)c1` gave MgrA-DNA mod 5.5 and S aureus helic -9.
For O=C(O)COc1ccccc1F the results were MgrA-DNA mod -2.1 and S aureus helic -19.
For Cc1cccc2cc(CN(Cc3ccccc3)C(=O)c3ccco3)c(=O)[nH]c12 the results were MgrA-DNA mod 2.8 and S aureus helic 9.
For NC(=S)Nc1nc2ccccc2[nH]c1=O the results were MgrA-DNA mod 2.1 and S aureus helic 9.
Screening COc1cc(OC)nc(SC)n1 returned MgrA-DNA mod -1.5.
`O=C(/C=C/c1ccco1)C1CC1` gave MgrA-DNA mod 11 and S aureus helic -11.
Screening O=C(NCc1nnc(SCC(=O)N2CCOCC2)o1)c1ccccc1 returned S aureus helic 0.
For CCc1ccc(C(=O)/C=C2\Sc3ccccc3NC2=O)cc1 the results were MgrA-DNA mod 3.2 and S aureus helic 9.
For O=C(NCc1ccccc1)C1CCN(C(=O)NCc2ccccc2)CC1 the results were MgrA-DNA mod 0.0 and S aureus helic 7.
Cc1nn(-c2ccccc2)c2[nH]c(=O)c(C#N)c(-c3ccccc3)c12 was read as MgrA-DNA mod 0.5.
For O=C1NC(=S)S/C1=C\c1c(NCCO)nc2ccccn2c1=O the results were S aureus helic -118.
For Fc1ccc(Cn2ccnc2-c2ccc(C(F)(F)F)cc2)cc1 the results were MgrA-DNA mod -0.8.
Screening CCc1nc2c([nH]1)c(=O)n(C)c(=O)n2C returned MgrA-DNA mod 0.0 and S aureus helic 4.
CN(C)c1ccnc2sc3c(=O)n(-c4ccccc4)cnc3c12 was read as S aureus helic 8.
Screening CCOc1ccc(NC(=O)c2cccnc2)cc1 returned S aureus helic -5.
`Cc1cccc(NS(=O)(=O)C2CCS(=O)(=O)C2)c1` (stereo unspecified) gave S aureus helic 0.
For CC1CCCCN1S(=O)(=O)c1ccc(CN2C(=O)c3cccnc3C2=O)s1 (stereo unspecified) the results were S aureus helic -2.
For CCOC(=O)c1cc(-c2ccc(N3CCOCC3)cc2)nn1-c1ccccc1 the results were S aureus helic 26.
For COc1ccc2c(c1)n([O-])c1c([n+]2=O)CCC1 the results were MgrA-DNA mod 2.2 and S aureus helic 14.
O=c1oc2cc(Cl)c(O)c(Cl)c2s1 was read as S aureus helic 30.
For CC(C)(C)c1nccc(-c2nn(-c3ccc(F)cc3)ccc2=O)n1 the results were MgrA-DNA mod -2.5.
CCn1cc(C(=O)O)c(=O)c2cnc(N3CCCC3)nc21 was read as MgrA-DNA mod 5.2&-0.4.
`O=C1C=CC(=O)N1c1cc(C(F)(F)F)cc(C(F)(F)F)c1` gave MgrA-DNA mod 1.6.
For Fc1cc2[nH]c(=S)[nH]c2cc1Cl the results were MgrA-DNA mod 1.6.
For CCn1c(SCC(=O)c2ccccc2)nc2ccccc2c1=O the results were S aureus helic 7.
Screening CC(O)CNc1c[nH]c(=O)[nH]c1=O (stereo unspecified) returned S aureus helic -31.
For CCCC(=O)Nc1cc(Cl)ccc1OC the results were MgrA-DNA mod 2.2 and S aureus helic 4.
Cc1onc(-c2ccccc2)c1C(=O)NCc1ccccc1 was read as S aureus helic 0.
For OCc1ccccc1Sc1ccccc1CO the results were MgrA-DNA mod -1.3.
`CCn1cc(C(=O)O)c(=O)c2cc3c(cc21)OCO3` gave MgrA-DNA mod -0.6&2.6.
For COc1cc([N+](=O)[O-])ccc1N1CCCCC1 the results were MgrA-DNA mod -3.4.
CCOc1ccc(N2C(=O)NC(=O)/C(=C/c3cc(Br)ccc3OC)C2=O)cc1 was read as MgrA-DNA mod 0.2.
`COc1ccc2c(c1)c(=O)oc1c(CN(C)C)c(O)ccc12` gave MgrA-DNA mod 1.6 and S aureus helic 34.
`COc1ccc(Nc2cc(C(=O)NCCN3CCCC3)c3ccccc3n2)c(OC)c1` gave S aureus helic -39.
Screening S=C(N/N=C/c1ccc(Cl)c(Cl)c1)NC1CC2C=CC1C2 (stereo unspecified) returned MgrA-DNA mod -0.7.
Cc1ccccc1NC(=S)N1CC(C)OC(C)C1 (stereo unspecified) was read as MgrA-DNA mod -1.5.
Screening COc1ccc(-c2cn(-c3ccc(Br)cc3)c(=O)[nH]2)cc1 returned MgrA-DNA mod -0.5 and S aureus helic -2.
For S=c1nc(-c2csc3c2CCCC3)[nH][nH]1 the results were MgrA-DNA mod 16 and S aureus helic 23.
For Cc1cc(=O)n2[nH]c(C(=O)N3CCCC3)nc2n1 the results were MgrA-DNA mod -2.8 and S aureus helic 1.
Screening COc1ccc(C#N)cc1Br returned MgrA-DNA mod -0.9.
For Cc1sc2ncnc(N3CCC(C(=O)NC4(C)CCS(=O)(=O)C4)CC3)c2c1C (stereo unspecified) the results were S aureus helic 0.
Screening C/C(=N\O)c1ccc(Cl)c(NC(=O)c2c(-c3ccccc3Cl)noc2C)c1 returned MgrA-DNA mod -2.3.
`c1ccc(-c2nc(C34CC5CC(CC(C5)C3)C4)co2)cc1` gave MgrA-DNA mod -0.8 and S aureus helic 10.
O=C(Cn1nc(Cc2cccnc2)c2ccccc2c1=O)NCC1COc2ccccc2O1 (stereo unspecified) was read as S aureus helic 2.
CC(C)c1ccc(C2C3=C(CCCC3=O)NC3=C2C(=O)c2ccccc23)cc1 (stereo unspecified) was read as MgrA-DNA mod 2.1 and S aureus helic 7.
`O=C(CCCCCN1C(=O)c2ccccc2C1=O)Nc1nccs1` gave MgrA-DNA mod 3.3 and S aureus helic 0.
COc1ccc(OCc2nnc(N)s2)cc1 was read as MgrA-DNA mod 1.1 and S aureus helic 4.
`CSC1=NCCN1C(=O)c1cc2ccccc2o1` gave S aureus helic 9.
COc1ccc(CCNC(=O)CC(c2ccccc2)c2cc(Br)ccc2O)cc1OC (stereo unspecified) was read as MgrA-DNA mod -0.2 and S aureus helic 0.
Screening NC(=O)COC(=O)Cc1ccc(Cl)cc1 returned S aureus helic 9.
For CCOC(=O)C1CCc2sc(N)c(C#N)c21 (stereo unspecified) the results were MgrA-DNA mod 2.4.
For CC1(C)CC(=NOC(=O)c2ccccc2)CC(C)(C)N1 the results were S aureus helic 13.
`CCOC(=O)C1=C(C)N=c2s/c(=C\c3cc(OC)ccc3OC)c(=O)n2C1c1ccc(N(C)C)cc1` (stereo unspecified) gave MgrA-DNA mod 2.2.
For CCOc1ccc2oc(C(=O)Nc3ccc(S(C)(=O)=O)cc3)c(C)c2c1 the results were S aureus helic 4.
Cc1ccc(NC(=S)N(Cc2ccc(N(C)C)cc2)C(C)C)c(Cl)c1 was read as MgrA-DNA mod 2.8.
For CN1/C(=C\C=N\NC(=O)Cc2cn3ccsc3n2)C(C)(C)c2ccccc21 the results were S aureus helic -47.
For CCCC(CCC)C(=O)NC1CCN(Cc2ccccc2)CC1 the results were MgrA-DNA mod -3.3 and S aureus helic 6.
For CC(C)C(=O)N=c1sc2cccc(F)c2n1C the results were S aureus helic 4.
For CCN(CC)c1ccc(C(=O)OCC(=O)Nc2ncccn2)cc1 the results were S aureus helic -3.
Screening O=C(O)CSCC(=O)N1CCOCC1 returned S aureus helic 4.
Screening Cc1cccc(/C=N/N(C)C)c1 returned S aureus helic -17.
Screening C=CCSc1nc(O)cc(=O)n1C returned MgrA-DNA mod -1.9 and S aureus helic 5.
Screening Cc1ccc2c(c1)N(CC(=O)N1CCCC1)C(=O)C(C)O2 (stereo unspecified) returned MgrA-DNA mod -0.8 and S aureus helic 8.
For Cc1ccc(-n2c(-c3ccco3)nc3nc4ccccc4nc32)cc1 the results were S aureus helic -18.
O=c1oc2c(c(O)c1Cc1ccccc1)c(=O)[nH]c1ccccc12 was read as MgrA-DNA mod -1.7.
For CCN1CC(C)C(O)(c2ccccc2)CC1C (stereo unspecified) the results were MgrA-DNA mod 5.5 and S aureus helic -3.
Cn1c(SCc2ccccc2)nnc1C1CCCN1S(=O)(=O)c1ccc2c(c1)OCCO2 (stereo unspecified) was read as MgrA-DNA mod -2.0 and S aureus helic 8.
`Nc1c2c3c(sc2nc(=O)n1Cc1ccco1)CCC3` gave MgrA-DNA mod 0.3 and S aureus helic 1.
`CCC1CCCCN1C(=O)CSc1ccc(C)cc1` (stereo unspecified) gave MgrA-DNA mod -2.0 and S aureus helic -15.
O=C(CSc1ncnc2c1oc1ccccc12)N1CCCCC1 was read as S aureus helic 10.
`Oc1ccccc1/C=N/[n+]1ccccc1` gave MgrA-DNA mod -1.2 and S aureus helic -1.
Screening O=C(NCCN1C(=O)C2C3C=CC(C3)C2C1=O)Nc1cccnc1 (stereo unspecified) returned MgrA-DNA mod 1.8 and S aureus helic 10.
`CC1(C)CC(=O)C=C(SCc2ccc(Cl)cc2)S1` gave MgrA-DNA mod -0.4.
For CCN1CCSc2ccc(C(=O)NCc3ccc4c(c3)OCO4)cc21 the results were S aureus helic 24.
Cc1noc(/C=C/N(C)C)c1S(=O)(=O)N(C)Cc1ccccc1 was read as MgrA-DNA mod -2.3 and S aureus helic 4.
For Cc1noc(C)c1COC(=O)c1cc(Cl)cc(Cl)c1 the results were S aureus helic 15.
Screening Cc1ccc(-c2cnco2)cc1 returned MgrA-DNA mod -0.3.
Screening c1ccc2c(-c3ccncc3)c[nH]c2c1 returned S aureus helic 13.
`Cc1cc2c(NC(=O)COCC(=O)O)cccc2nn1` gave MgrA-DNA mod -5.5.
For CCOC(=O)CC(=O)Nc1ccn(C)n1 the results were MgrA-DNA mod -1.5.
`C=C(C)CC(Nc1ccc(C)cc1)c1ccco1` (stereo unspecified) gave MgrA-DNA mod -5.8 and S aureus helic 12.
Cc1ccc(/C=C2/SC(=S)N(CCc3ccc(Cl)cc3)C2=O)o1 was read as MgrA-DNA mod -2.1.
For COc1ccc(/C=C(\NC(=O)c2ccccc2)C(=O)N2CCOCC2)cc1 the results were MgrA-DNA mod 0.7 and S aureus helic 6.
`C1=C(c2ccccc2)Nc2ncnn2C1c1cccs1` (stereo unspecified) gave MgrA-DNA mod 39 and S aureus helic -11.
Screening CN1CCN(C(=S)NCC2CCCO2)CC1 (stereo unspecified) returned MgrA-DNA mod -2.8 and S aureus helic 1.
CCN1CC(C(=O)O)CC1=O (stereo unspecified) was read as MgrA-DNA mod -4.8 and S aureus helic 7.
For Cc1ccccc1OCC1=NN2C(=N)/C(=C\c3cccn3-c3cccc(Cl)c3)C(=O)N=C2S1 the results were S aureus helic -18.
`CC(=O)N1c2ccccc2C(C)=CC1(C)C` gave S aureus helic 9.
Screening Clc1ccc(C2C=C(c3cccs3)Nc3ncnn32)cc1 (stereo unspecified) returned S aureus helic -3.
Screening Cc1ccc(-c2nnc3c4ccccc4c(C)nn23)cc1S(=O)(=O)N(C)CCO returned S aureus helic 3.
CCC(=O)c1cn(CC(=O)N2CCCC2)c2ccccc12 was read as MgrA-DNA mod -2.4 and S aureus helic 10.
`COc1ccc(NC(=O)Cc2c(O)c3ccccc3[nH]c2=O)cc1` gave MgrA-DNA mod -0.8 and S aureus helic 24.
`Cc1ccc(CNC(=O)CCS(=O)(=O)c2ccc(Br)s2)cc1` gave MgrA-DNA mod 0.3 and S aureus helic 5.
`O=C1N(c2ccccc2)c2ccccc2C1(O)C(F)(F)F` (stereo unspecified) gave S aureus helic 10.
Screening O=C1CCN=C(Nc2ccc(F)c(Cl)c2)S1 returned MgrA-DNA mod -0.8.
Screening CCCOC(=O)c1cc2ccccc2oc1=O returned MgrA-DNA mod -0.9 and S aureus helic 1.

Filtered by structure: the entries above with a Cl atom
For O=[N+]([O-])c1cc(Br)c(Oc2cncc(Cl)c2)cc1Oc1cncc(Cl)c1 the results were MgrA-DNA mod 1.1.
O=c1oc2cc(Cl)c(O)c(Cl)c2s1 was read as S aureus helic 30.
For Fc1cc2[nH]c(=S)[nH]c2cc1Cl the results were MgrA-DNA mod 1.6.
For CCCC(=O)Nc1cc(Cl)ccc1OC the results were MgrA-DNA mod 2.2 and S aureus helic 4.
Screening S=C(N/N=C/c1ccc(Cl)c(Cl)c1)NC1CC2C=CC1C2 (stereo unspecified) returned MgrA-DNA mod -0.7.
Screening C/C(=N\O)c1ccc(Cl)c(NC(=O)c2c(-c3ccccc3Cl)noc2C)c1 returned MgrA-DNA mod -2.3.
Screening NC(=O)COC(=O)Cc1ccc(Cl)cc1 returned S aureus helic 9.
Cc1ccc(NC(=S)N(Cc2ccc(N(C)C)cc2)C(C)C)c(Cl)c1 was read as MgrA-DNA mod 2.8.
`CC1(C)CC(=O)C=C(SCc2ccc(Cl)cc2)S1` gave MgrA-DNA mod -0.4.
For Cc1noc(C)c1COC(=O)c1cc(Cl)cc(Cl)c1 the results were S aureus helic 15.
Cc1ccc(/C=C2/SC(=S)N(CCc3ccc(Cl)cc3)C2=O)o1 was read as MgrA-DNA mod -2.1.
For Cc1ccccc1OCC1=NN2C(=N)/C(=C\c3cccn3-c3cccc(Cl)c3)C(=O)N=C2S1 the results were S aureus helic -18.
Screening Clc1ccc(C2C=C(c3cccs3)Nc3ncnn32)cc1 (stereo unspecified) returned S aureus helic -3.
Screening O=C1CCN=C(Nc2ccc(F)c(Cl)c2)S1 returned MgrA-DNA mod -0.8.
